Source: PubChem BioAssay (several laboratories)
UCH37 DUB inh – inhibitors of human deubiquitinating enzyme UCH37; Q9Y5K5; inhibition, % (test concentration not listed); hit rate 0.33% among 330,000; purified proteasome/UCH37, Ub-AMC cleavage fluorescence; AID 588478;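 active means mean of two replicates above 20%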;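 further: 0% = compound-free wells with enzyme and 100% = wells lacking proteasome; stock transfer was 100 nL into about 20 µL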
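assay system = human UCH37 enzyme supplied as purified proteasome complex | amount = proteasome at 0.15 nM in the dispensed enzyme solution | schedule = 30 min compound-proteasome preincubation then 25 min substrate reaction, room temperature | measured by = fluorescence, ex 355 nm, em 460 nm | benchmarks = no-proteasome wells (full inhibition) and compound-free wells (no inhibition)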
HNF4A DNA FP – change in binding of human HNF4 alpha to DNA. activity change, % at 10 µM. P41235. HNF4a-FITC DNA binding, fluorescence polarization, 1 h. hit rate 0.3% among 360,000. AID 1224865; in the data active means activity change above about 30%, passing the limit was not always enough;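 further: controls were the assay level and a saturating level of protein; the project sought stronger binding though the title names inhibitors; some compounds called inactive have numbers as strong as hits; positive values seem to mean higher polarization but the record does not say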
Target sequence (P41235 whole entry, looked up): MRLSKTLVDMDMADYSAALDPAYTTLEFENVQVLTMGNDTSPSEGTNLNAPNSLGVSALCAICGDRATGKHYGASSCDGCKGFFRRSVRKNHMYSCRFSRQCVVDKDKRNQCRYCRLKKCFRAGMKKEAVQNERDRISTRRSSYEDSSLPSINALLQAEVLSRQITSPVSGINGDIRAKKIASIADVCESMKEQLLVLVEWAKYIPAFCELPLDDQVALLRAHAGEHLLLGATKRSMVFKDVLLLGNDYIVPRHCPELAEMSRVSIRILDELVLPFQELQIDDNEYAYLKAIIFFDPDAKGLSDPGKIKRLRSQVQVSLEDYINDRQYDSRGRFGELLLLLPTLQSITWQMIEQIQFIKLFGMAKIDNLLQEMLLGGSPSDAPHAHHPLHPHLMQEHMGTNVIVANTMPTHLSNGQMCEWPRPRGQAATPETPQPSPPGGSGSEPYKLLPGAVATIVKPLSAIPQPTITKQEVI
FGF22 binding – shifts melting point of recombinant human FGF22; recombinant FGF22 thermal shift, SYPRO orange fluorescence; percent of sucrose octasulfate shift, DMSO zero; calls only at 9.99 µM; hit rate 1.5% among 340,000; AID 651658;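 active means melting point raised past a set limit in the mean and every replicate; three in four hits are not shown here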
Target sequence (Q9HCT0 whole entry, looked up): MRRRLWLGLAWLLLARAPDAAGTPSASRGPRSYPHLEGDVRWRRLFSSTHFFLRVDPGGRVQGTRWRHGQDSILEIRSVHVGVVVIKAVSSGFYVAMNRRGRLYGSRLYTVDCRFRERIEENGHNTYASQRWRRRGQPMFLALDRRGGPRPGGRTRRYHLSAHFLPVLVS
ALR inh – blocks human ALR sulfhydryl oxidase activity; hit rate 3.8% among 290,000; P55789; purified ALR, DTT oxidation, H2O2 HRP-luminol luminescence; inhibition, % (test concentration not listed);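 active means mean and each replicate at 75% or more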;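 further: stock transfer was 7.5 nL into about 7.5 µL; 0% = neutral wells and 100% = wells with inactivated enzyme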
Target sequence (P55789 whole entry, looked up): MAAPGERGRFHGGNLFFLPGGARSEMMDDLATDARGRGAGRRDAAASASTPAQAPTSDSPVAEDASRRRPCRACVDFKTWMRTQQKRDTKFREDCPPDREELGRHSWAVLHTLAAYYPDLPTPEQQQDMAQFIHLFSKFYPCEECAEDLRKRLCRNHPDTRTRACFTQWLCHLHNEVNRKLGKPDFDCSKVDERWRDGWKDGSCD
Beta2AR agonist – human beta-2 adrenergic receptor agonism by FAP. response, % (concentration not given with the values). AID 504454. P07550. Am2.2-beta2AR cells, FAP receptor internalization, flow cytometry; reference of the scale not given here. hit rate 0.43% among 340,000;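 active means response above a set limit, near 3 SD of response in nonfluorescent compounds, cut at about 42% in these data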;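 further: stock transfer was 100 nL into about 11 µL; a reference agonist was the positive control; negative values mostly stem from fluorescent compounds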
E coli growth – blocks Escherichia coli growth | OD600 absorbance (concentration not given with the values) | OD600, 23 h; active compounds read low | hit rate 0.21% among 330,000;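 active means OD600 absorbance below the run mean of sample wells minus 3.6 SD, in any replicate, cut at about 0.56 in these data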;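 further: stock transfer was 300 nL into about 60 µL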
Ecoli rRNA inh – selective bacterial rRNA inhibition in E. coli; E. coli WT GFP vs humanized-ribosome RFP mutants, fluorescence, 24 h; active compounds read low; DMSO median 0, no signal -100; GFP signal change (wild-type ribosome), % (no concentration beside the values); hit rate 1.6% among 350,000;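 active means significant combined selectivity score with lowered wild-type GFP, culture density cut under 30%, mutant RFP and density less affected; inactive means any of these conditions unmet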; further: one replicate is shown; some compounds called inactive have numbers as strong as hits
Ecoli rRNA inh OD600 – further read-out of Ecoli rRNA inh, marked with its call; OD600 change, %; measured here: OD600 growth;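 optical density of the mix in the first replicate; 0 = DMSO median and -100 = no signal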
Ecoli rRNA inh RFP – also measured in Ecoli rRNA inh; calls as there; RFP signal change, %; measured here: RFP humanized mutant strains;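 first replicate; 0 = DMSO median and -100 = no signal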
* hit, by the source's call; i = inactive; . = no result given; & = joins results of further samples. This is a subset (hit frequency here may not be typical).

SMILES	UCH37 DUB inh	HNF4A DNA FP	FGF22 binding	ALR inh	Beta2AR agonist	E coli growth	Ecoli rRNA inh	Ecoli rRNA inh OD600	Ecoli rRNA inh RFP
COC(=O)[C@@]12CCCCN1[C@H](c1ccc(-c3ccc(Cl)c(Cl)c3)c(OC)c1)[C@H]1C(=O)N(C)C(=O)[C@H]12	-0.2	-2.2	i	-0.5	17.7	.	21.8	13.2	-1.6
COc1ccc2nc(SCC(=O)N3CCCCC3)c(C#N)cc2c1	-12.0	4.0	i	-1.2	-21.3	0.648	14.8	13.4	2.9
C/C(=N/NC(=O)c1cccc(Br)c1)C1CC2CCC1C2 (stereo not drawn)	.	0.8	i	-3.5	1.1	.	3.4	-17.1	-3.6
COc1cccc(C(=O)N/N=C/c2ccc(OC)c(COc3ccccc3C(N)=O)c2)c1	.	-1.8	i	-13.4	-6.6	.	-2.7	-8.4	5.4
O=C(Nc1ccccc1)N1CCN(c2cccc(C(F)(F)F)c2)CC1	-1.4	-4.8	.	3.8	4.6	0.667	.	.	.
Cc1nnc(SC(C)C(=O)Nc2ccc(S(=O)(=O)N3CCCCC3)cc2)s1 (stereo not drawn)	-0.8	-0.3	.	-11.9	-0.1	0.673	.	.	.
Cc1ccc(-n2c(SCC(=O)Nc3ccc4c5c(cccc35)CC4)nc(O)c(C)c2=O)cc1	5.7	2.0	i	98.5*	-3.0	0.688	-19.1	-30.8	-11.4
COC(=O)[C@]12CCCCC=C1N(Cc1cccc3ccccc13)C(=O)[C@H](CC(=O)NCc1cccc(C(F)(F)F)c1)C2	.	-1.6	i	.	.	.	25.6	12.3	4.1
COc1ccc(NC(=O)c2c[nH]c(=O)n(-c3ccc(C)c(C)c3)c2=O)cc1OC	7.0	1.9	i	3.6	-4.4	0.711	1.7	4.5	-0.5
Nc1ccc(Cc2ccc(N)c(O)c2)cc1O	5.8	15.3	i	.	3.3	0.628	-5.2	14.5	4.2
O=C(Nc1cccnc1)c1cccnc1Cl	2.2	-0.8	.	.	-4.5	0.706	.	.	.
CCN(CC(=O)Nc1c(F)cccc1F)C(=O)CSC(=S)N1CCCC1	1.7	1.1	i	1.9	11.7	0.715	6.1	5.4	1.9
O=C(O)c1ccccc1NSc1ccccc1[N+](=O)[O-]	1.5	-6.2	i	-33.1	0.3	0.695	-2.8	-2.3	1.7
CCOC(=O)c1ccccc1NC(=O)COC(=O)c1ccc(OCC(=O)N2CCOCC2)c(OCC)c1	-0.2	0.2	i	.	13.3	0.716	-3.4	-0.6	-1.5
COc1ccc2nc(SCCOC(=O)Nc3ccc(Cl)cc3)nc(C)c2c1	-22.0	2.6	.	0.7	-2.7	0.685	.	.	.
COC(=O)C1=NNC2(c3ccc(C)cc3)C(=O)N(c3cccc(C)c3C)C(=O)C12 (stereo not drawn)	1.2	1.6	.	16.2	37.9	0.645	.	.	.
Cc1ccc(CSCC(=O)N(C)CC(=O)Nc2ccccc2C(F)(F)F)cc1	1.9	4.2	i	-1.8	0.1	0.703	-3.1	-4.7	-1.5
CCCN(Cc1ccccc1)S(=O)(=O)c1ccc(N2C(=O)CCC2=O)cc1	0.4	0.3	.	-1.8	-0.7	0.719	.	.	.
CC(C)CCN1CCN(Cc2cccc(-n3cccn3)c2)CC1CCO (stereo not drawn)	1.8	-1.5	i	-1.1	-1.2	0.68	7.8	-6.0	-3.5
CC1(C)Oc2ccc(C(=O)NC3CCCC3)cc2N(CC(=O)NC2CCCC2)C1=O	0.5	2.7	.	-10.3	-0.5	0.67	.	.	.
CCOC(=O)C1=C(C)N=C2SC(CC)C(=O)N2C1c1cccc(F)c1 (stereo not drawn)	1.0	-0.5	.	-13.2	-4.0	0.744	.	.	.
COc1ccc(OCCCC(=O)OC(C)C(=O)Nc2cccc(C(C)=O)c2)cc1 (stereo not drawn)	0.6	-0.2	i	1.3	7.3	0.656	-4.8	-18.7	3.0
CCOC(=O)[C@H](O)[C@@H](O)c1cccc([C@H](O)[C@@H](O)C(=O)OCC)c1	2.1	-3.4	i	4.9	-1.9	.	10.7	8.6	6.1
CN(C)C(=O)C1C2NC(=S)N(c3cccc(Cl)c3)C1(C)Oc1ccc(Cl)cc12 (stereo not drawn)	-0.7	0.1	i	1.1	-1.9	0.692	-21.6*	-4.0*	3.9*
N/C(=N\OC(=O)c1ccco1)c1ccccc1	-0.9	-0.5	.	-6.3	0.2	0.677	.	.	.

Quoted at random: 2 records from the list, in no set order.
SMILES	UCH37 DUB inh	HNF4A DNA FP	FGF22 binding	ALR inh	Beta2AR agonist	E coli growth	Ecoli rRNA inh	Ecoli rRNA inh OD600	Ecoli rRNA inh RFP
CCOC(=O)c1ccccc1NC(=O)COC(=O)c1ccc(OCC(=O)N2CCOCC2)c(OCC)c1	-0.2	0.2	i	.	13.3	0.716	-3.4	-0.6	-1.5
CCCN(Cc1ccccc1)S(=O)(=O)c1ccc(N2C(=O)CCC2=O)cc1	0.4	0.3	.	-1.8	-0.7	0.719	.	.	.

(continued)
SMILES	UCH37 DUB inh	HNF4A DNA FP	FGF22 binding	ALR inh	Beta2AR agonist	E coli growth	Ecoli rRNA inh	Ecoli rRNA inh OD600	Ecoli rRNA inh RFP
COc1cccc(CC(=O)N2CCCC(CO)(Cc3ccc(F)cc3F)C2)c1 (stereo not drawn)	2.1	0.7	i	.	-0.8	0.67	-13.5	-11.4	-9.9
Cc1ccccc1N1CCN(C2CCCN(C(=O)CCc3c(C)noc3C)C2)CC1 (stereo not drawn)	2.7	0.7	i	18.7	4.9	0.697	-1.1	-8.1	0.5
COc1ccc(Nc2nc3c(C)cccn3c(=O)c2C=O)cc1	8.0	1.1	i	.	-7.3	0.682	5.0	0.5	-0.4
NCCCC[C@@H]1NC(=O)c2cc([N+](=O)[O-])cc(I)c2SC[C@@H](C(=O)NCC(N)=O)NC(=O)CNC1=O	1.6	-3.0	.	-49.7	3.8	.	.	.	.
CNC(=O)CC1C(=O)N(c2ccc(Cl)cc2)C(=S)N1NC(=O)c1cccc(F)c1 (stereo not drawn)	5.5	-0.2	i	69.3	2.2	0.586	-20.4	-20.0	-5.9
Cc1ccc(CNC(=O)OC2CC3CC2[C@H]2CCCCN2C3=O)cc1 (stereo partly drawn)	.	0.6	i	.	.	.	4.0	9.2	1.3
C[C@@H]1CCCCO[C@@H](CN(C)S(=O)(=O)c2cn(C)cn2)[C@@H](C)CN([C@H](C)CO)C(=O)c2cc(N(C)C)ccc2O1	.	1.8	i	.	.	.	22.2&3.5	9.9&8.9	10.1&-3.8
COc1ccc(N(CC(=O)NCCOc2ccccc2)S(=O)(=O)c2ccc(C)cc2)cc1	1.3	-0.1	i	-3.9	-0.2	0.621	-13.9	-24.2	6.1
CCOC(=O)c1cccc(C2=CC(=O)C[C@H](c3ccc(OC)cc3)C2)c1	-2.1	-4.3	.	-2.5	-3.4	0.78	.	.	.
CC(NCC(O)COc1ccc2ccccc2c1)c1ccccc1 (stereo not drawn)	7.6	-1.7	i	-12.6	16.6	0.64	1.0	-24.9	4.0
Cc1ccc(S(=O)(=O)NCCSc2nnc(N)s2)cc1	1.3	1.6	.	-4.6	-9.1	0.77	.	.	.
O=C(NNS(=O)(=O)c1ccc([N+](=O)[O-])cc1)C1CCCCC1	0.9	-1.1	i	-6.5	-2.3	0.682	0.0	-8.0	-0.2
CN(C)C(=O)N1CCCC(C(=O)NCCc2ccccc2)C1 (stereo not drawn)	3.7	1.5	.	3.6	1.9	0.653	.	.	.
O=C(NNc1cccc(Cl)n1)c1ccccc1CC[N+](=O)[O-]	4.1	-3.0	i	-1.9	-3.4	0.683	1.2	4.8	-2.6
Cc1ccc2cc3cc(C(=O)N4CCN(C(=O)c5ccco5)CC4)sc3nc2c1	-5.7	-2.7	.	4.1	-6.2	0.721	.	.	.
Cc1cc(C)c2cc(CN(CC3CCCO3)C(=S)NCc3ccco3)c(=O)[nH]c2c1 (stereo not drawn)	1.0	-0.6	i	7.3	-2.2	0.696	-21.4	-26.9	3.0
CCCCNC(=O)C1(c2ccc(OC)cc2)CCOCC1	3.7	-0.5	.	-0.3	0.2	0.749	.	.	.
O=C(COC(=O)c1ccc(S(=O)(=O)NCc2ccco2)cc1)Nc1ccccc1OC(F)F	0.9	0.0	.	2.2	7.6	0.657	.	.	.
Cc1ccc(S(=O)(=O)N2CCC(C(=O)OCC(=O)N(C)C3CCCCC3)CC2)cc1C	3.5	-2.6	i	.	-3.5	0.643	-3.0	-11.5	-0.3
CCOC(=O)C1(CC2CC2)CCN(Cc2ccc3cccc(F)c3n2)CC1	-1.4	-1.1	i	-2.3	-4.1	0.647	-11.7	-9.4	1.3
COc1ccc(OC)c(NC(=O)CSc2nc3ccccc3c(=O)n2CC2CCCO2)c1 (stereo not drawn)	2.7	2.8	i	0.2	-11.1	0.683	-4.4	-8.2	-2.1
Cc1csc(N/N=C/c2ccccc2F)n1	.	2.8	i	12.4	-6.0	.	17.3	12.9	1.9
Nc1c(C(=O)OCC(=O)Nc2ccc(Cl)cc2[N+](=O)[O-])[nH]c(=O)[nH]c1=O	-0.1	-3.4	i	-6.3	-4.9	0.669	5.4	4.7	-3.4
CCCS(=O)(=O)N1CCN(CC2CC3C=CC2C3)CC1 (stereo not drawn)	4.5	-0.1	.	.	-1.6	0.727	.	.	.
COc1ccc(NC(=O)CSc2n[nH]c(-c3ccccc3)n2)cc1S(N)(=O)=O	0.1	2.6	i	3.0	0.1	0.664	1.4	13.7	1.9
SMILES	UCH37 DUB inh	HNF4A DNA FP	FGF22 binding	ALR inh	Beta2AR agonist	E coli growth	Ecoli rRNA inh	Ecoli rRNA inh OD600	Ecoli rRNA inh RFP
CC1CC(C)CN(S(=O)(=O)c2ccc(NC(=O)c3ccc(=O)[nH]c3)cc2)C1 (stereo not drawn)	2.6	-5.7	i	1.7	17.1	0.723	3.0	11.3	2.6
N#Cc1c(-c2ccccc2)nc(SCc2cccc(Cl)c2)[nH]c1=O	2.0	-2.5	i	.	-7.3	0.688	-41.9	-73.3	-19.4
CC(=O)C1C(=O)C=C(c2cccs2)CC1c1ccccc1 (stereo not drawn)	6.4	0.6	i	13.2	0.3	0.756	-10.6	-22.3	-5.4
CC(C)CN(CC(C)C)c1nn[nH]n1	6.1	-1.3	i	.	-1.6	0.672	5.4	10.6	1.8
C=CCN(c1ccccc1OC)S(=O)(=O)c1cccc(C(=O)OCC(=O)c2c[nH]c3ccccc23)c1	-0.7	8.1	.	-1.3	-1.5	0.732	.	.	.
O=C(Nc1cccnc1)c1cc(-c2ccc(Cl)c(Cl)c2)on1	0.3	2.2	i	.	7.2	0.668	4.2	8.4	2.2
O=C(COC(=O)c1n[nH]c(=O)c2ccccc12)Nc1ccccc1F	3.6	0.0	i	-9.0	-6.8	0.689	.	.	.
COc1cccc(NC(=O)COC(=O)CCC2CCCC2)c1	3.6	-2.8	i	-3.5	-4.2	0.677	-6.3	-1.1	3.2
O=C(NC1CCSc2ccccc21)c1cccc([N+](=O)[O-])c1 (stereo not drawn)	3.5	-0.2	i	-0.8	3.3	0.668	-3.9	-4.6	-2.9
CN1/C(=C/C(=O)COC(=O)CN2C(=O)C3CC=CCC3C2=O)C(C)(C)c2ccccc21 (stereo not drawn)	-19.0	1.2	i	.	8.9	0.612	-32.5	-49.6	44.5
COc1cc(C2C=C(C34CC5CC(CC(C5)C3)C4)NC(=S)N2)cc(OC)c1OC (stereo not drawn)	0.0	3.3	.	-0.9	5.9	0.721	.	.	.

Records listed so far marked active in ALR inh.
SMILES	UCH37 DUB inh	HNF4A DNA FP	FGF22 binding	ALR inh	Beta2AR agonist	E coli growth	Ecoli rRNA inh	Ecoli rRNA inh OD600	Ecoli rRNA inh RFP
Cc1ccc(-n2c(SCC(=O)Nc3ccc4c5c(cccc35)CC4)nc(O)c(C)c2=O)cc1	5.7	2.0	i	98.5*	-3.0	0.688	-19.1	-30.8	-11.4
